PINK1 modulator: A Quantitative High throughput Screen to Identify Chemical Modulators of PINK1 Expression; PINK1 immunofluorescence, high-content cytometry, 24 h; Potency, µM (titrated, usually from 76.6 µM), inactives show at the top dose activation (PINK1 increase), most hits filed as activators; hit rate 0.2% among 410,000; AID 624263, 2012; active = well fitted activation curve with a large enough effect; inconclusive = small, poorly fitted or top-dose-only effect; inactive = flat fitted curve, though single readings scatter; cell line not stated here;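 further: potency means the concentration at half of the fitted maximal effect; % of control where 0% means no effect; nearly all actives have a fitted effect of over 65% in size; a mitochondrial uncoupler was the plate control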
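Readout is PINK1 immunofluorescence, quantified alongside mitochondrial, cell and nuclear markers by laser-scanning microplate cytometry. Cells from a stable line were exposed to compound titrations (5 concentrations) for 24 hours, with CCCP controls.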
TRPML1 agonist: qHTS for Agonists of the Human Mucolipin Transient Receptor Potential 1 (TRPML1). Mucolipin-1 (Homo sapiens), Q9GZU1. TRPML1-expressing cells, Ca2+ dye fluorescence, FDSS; host cell line not named in the record; reference of the full effect not given here. activation, % (concentration not given with the values). hit rate 0.12% among 410,000. AID 624414, 2012; in the data active = activation above about 50%; inconclusive = about 30% to 50%; inactive = below about 30%; further: 0% is about no effect; the text of the record puts the active cut at 80%
Target sequence (Q9GZU1 whole entry, looked up): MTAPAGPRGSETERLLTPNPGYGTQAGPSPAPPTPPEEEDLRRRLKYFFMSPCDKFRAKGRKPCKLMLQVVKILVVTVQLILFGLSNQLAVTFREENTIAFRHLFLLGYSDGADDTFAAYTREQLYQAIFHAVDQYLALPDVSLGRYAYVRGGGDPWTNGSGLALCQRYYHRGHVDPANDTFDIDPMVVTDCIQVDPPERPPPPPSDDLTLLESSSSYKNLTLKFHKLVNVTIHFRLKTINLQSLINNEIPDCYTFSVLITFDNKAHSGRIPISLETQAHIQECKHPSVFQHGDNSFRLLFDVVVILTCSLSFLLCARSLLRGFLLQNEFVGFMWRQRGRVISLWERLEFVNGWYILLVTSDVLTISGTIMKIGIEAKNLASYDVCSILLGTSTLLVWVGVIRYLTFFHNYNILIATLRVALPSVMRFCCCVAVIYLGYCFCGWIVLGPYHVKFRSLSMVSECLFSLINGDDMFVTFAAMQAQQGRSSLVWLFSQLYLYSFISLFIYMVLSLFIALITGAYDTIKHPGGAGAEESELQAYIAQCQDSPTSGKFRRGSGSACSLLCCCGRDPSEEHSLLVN
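Agonist activity was taken from a 110 s kinetic Ca2+ dye read on the FDSS after pinning compounds onto TRPML1-DL cells. The cells were seeded at 1,500/well with Tet inducer, incubated about 16 h, then dye-loaded at room temperature.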
Active calls of the source: *; u = inconclusive. A portion of the library; the hit share may differ from the screen's.

SMILES | PINK1 modulator | TRPML1 agonist
CCOCCCNC(=O)C1CCCN(Cc2nc(-c3ccc(CC)cc3)oc2C)C1 (stereo not drawn) | 0.6% | 0.2
Cc1ccc(CNC(=O)c2ccc(-c3nc(CN4CCc5ccccc54)c(C)o3)cc2)cc1 | 3.3% | 1.5
Cc1ccccc1C(=O)N1CCC(c2nc(-c3ccc(S(=O)(=O)N4CCCC4)cc3)no2)CC1 | -0.8% | 1.0
Cc1ccc(-c2nc3ncccc3o2)cc1NC(=O)c1ccc(-c2ccc(Cl)cc2)o1 | 0.5% | -0.3
Cc1ccc(C(=O)N2CC(=O)Nc3ccc(Br)cc3C2c2ccc(F)cc2)cc1C (stereo not drawn) | -1.7% | -0.5
Cc1ccc(-n2c(CCC(=O)O)ccc2-c2cccs2)cc1Cl | 0.2% | 0.8
CCOc1ccc2nc(N3CCCC(C(=O)Nc4c(C)cccc4C)C3)sc2c1 (stereo not drawn) | -1.7% | -1.1
COc1ccc(CCNC(=O)CCCn2c(=O)c3ccccc3n(CC(=O)Nc3cccc(C)c3)c2=O)cc1OC | 2.6% | 0.0
Cc1cccc(N2CCN(C(=O)CN3C(=O)COc4ccc(S(=O)(=O)N5CCC(C)CC5)cc43)CC2C)c1 (stereo not drawn) | -0.3% | 1.9
CCOc1ccccc1CNC(=O)CSc1nnc(C)c2c(C)n(-c3ccccc3)nc12 | 4.0% | 0.2
CCOc1ccccc1NC(=O)Cn1c(=O)n(CCCCC(=O)NCCCOC)c(=O)c2ccccc21 | 1.3% | -0.6
CCOc1ccc(NC(=O)Cn2ncc3c2-c2cc(C)ccc2OC3)cc1 | 4.6% | 1.3
Cc1ccc(C(C)C)c(OCC(=O)Nc2c(C(=O)c3ccccc3)oc3ccccc23)c1 | 0.5% | 2.3
CC(C)(C)c1ccc(S(=O)(=O)NCc2nc3cccnc3n2Cc2ccccc2Cl)cc1 | 0.2% | 3.3
CCOc1cccc(CC(=O)NCc2ccc3c(c2)CCN3C(C)=O)c1OCC | 1.4% | 1.7
CC1=C(C(=O)Nc2cccc(C(F)(F)F)c2)C2(CCCCC2)OC1=O | 3.3% | -0.4
COc1cccc(C(=O)N(Cc2ccc(N(C)C)cc2)Cc2ccco2)c1 | -0.1% | 2.0
CCCCOc1ccc(C(=O)NCc2cn3cccc(C)c3n2)cc1 | 2.0% | -0.2
CNS(=O)(=O)c1cn(CC(=O)Nc2ccc(C(C)=O)cc2)cc1S(=O)(=O)NC | -1.1% | 0.1
COc1ccc(-c2cc3nc(C)c(CCC(=O)Nc4cccc(C(F)(F)F)c4)c(C)n3n2)c(OC)c1 | 2.4% | -0.7
CCOC(=O)C1CCN(C(=O)Cn2c(-c3cccs3)cc3cc(Cl)ccc32)CC1 | 0.4% | 1.3
O=C(Cn1c(=O)n(-c2ccc(F)cc2)c(=O)c2sc3ccccc3c21)NC1CCCCC1 | 0.7% | -0.6
Cc1cc(=O)n(CC(=O)NCc2ccc(OC(C)C)cc2)c2c1c(C)nn2-c1cccc(F)c1 | -0.8% | 1.0
CC(=O)c1ccc(N2CCN(C3C(=O)c4ccccc4N3C(C)=O)CC2)cc1 (stereo not drawn) | -0.6% | 1.3
CC(NC(=O)C1CCN(c2nc3ccccc3nc2C(F)(F)F)CC1)c1ccccc1 (stereo not drawn) | 3.5% | -0.6
COc1cccc(C2C(C(=O)Nc3ccc(C)cc3C)=C(C)Nc3nc4ccccc4n32)c1OC (stereo not drawn) | 6.9% | -0.3
Cc1ccc(C(=O)Nc2c(C(=O)NC(C)(C)C)oc3ccccc23)cc1 | -2.4% | 0.6
CCOC(=O)c1c(C)[nH]c(C)c1S(=O)(=O)N1CCC(C(=O)NCc2cccc(OC)c2)CC1 | -0.1% | -1.2
CN(C)c1ccc(/C=C/c2ccnc3ccc(O)cc23)cc1 | 6.0% | 5.9
Cc1cccc(C(=O)NC2(C(F)(F)F)N=C(c3ccccc3)N(C3CCCCC3)C2=O)c1 (stereo not drawn) | -1.5% | -0.8
CCOc1cc(Br)cc(C2NC(=O)c3c(sc4c3CCN(C)C4)N2)c1O (stereo not drawn) | 2.2% | 0.5
Cc1cc(C)cc(OC(=O)c2snnc2C)c1 | -2.5% | 2.3
COC(=O)c1cccnc1-n1c(=O)c2cccnc2n(CC(=O)Nc2ccccc2F)c1=O | -0.2% | -0.1
Cc1ccc(NC(=O)CSc2nc(-c3cccs3)nc3cc(=O)[nH]n23)cc1 | 4.2% | -0.7
CCC1CN(C(=O)Nc2ccc(C(=O)O)cc2)c2cc(Cl)ccc2O1 (stereo not drawn) | -0.8% | 2.4
Cc1ccc(NS(=O)(=O)c2ccc3c(c2)CC(=O)N3)cc1Cl | 1.6% | 0.1
COc1cccc(-c2nnc(-c3ccccc3NC(=O)c3ccc(F)cc3F)o2)c1 | -5.2% | 0.5
Cn1c(=O)c2c(nc(N3CCOCC3)n2Cc2ccccc2)n(C)c1=O | -0.3% | -0.8
CC(NC(=O)c1nn(C)c2c1CSc1ccccc1-2)c1ccccc1 (stereo not drawn) | 0.8% | 0.5
Cc1cccc(NC(=O)CSc2nc3ccc(NC(=O)c4ccco4)cc3s2)c1 | -0.6% | 0.8

Taken from above:
Cc1cccc(N2CCN(C(=O)CN3C(=O)COc4ccc(S(=O)(=O)N5CCC(C)CC5)cc43)CC2C)c1 (stereo not drawn) – PINK1 modulator = -0.3%
CCCCOc1ccc(C(=O)NCc2cn3cccc(C)c3n2)cc1 – TRPML1 agonist = -0.2

Later entries
SMILES | PINK1 modulator | TRPML1 agonist
Cc1nc2sc(C(=O)Nc3ccc(F)cc3)c(N)c2c(-c2ccc(Br)cc2)c1C(=O)Nc1ccc(Cl)cc1 | -0.1% | 0.2
O=C(Nc1cccc2cccnc12)c1ccc(-c2cccc(Cl)c2)o1 | 1.7% | 0.1
CCOc1ccc(-n2nc3ccc(NC(=O)c4cccc(F)c4)cc3n2)cc1 | 5.1% | 3.2
COc1ccc(-n2nc(C(=O)NCCc3ccc(OC)c(OC)c3)c3c4ccccc4n(C)c3c2=O)cc1Cl | 1.6% | -0.7
Cc1oc(-c2ccccc2F)nc1CSCC(=O)NCCc1ccccc1 | 0.8% | 3.4
Cc1ccc(NC(=O)CSc2nc3ccc(NC(=O)COc4ccc(C)cc4)cc3s2)cc1 | 12.5% | -0.8
COc1ccc(C(=O)Nc2ccc3nc(SCC(=O)N4CCOCC4)sc3c2)cc1 | 4.2% | 2.5
O=C(NC1CC(=O)N(c2ccc(Cl)cc2)C1)c1ccc(S(=O)(=O)N2CCOCC2)cc1 (stereo not drawn) | -0.6% | 0.9
COc1ccc(Cn2ccnc2SCC(=O)Nc2nc3ccccc3s2)cc1 | -0.5% | 2.4
Cc1ccccc1CSc1nnc2[nH]c(=O)cc(C)n12 | 11.0% | 0.8
COc1cccc(C(=O)n2nc(-c3cccnc3)nc2NCc2ccc(F)cc2)c1 | 0.3% | -0.5
CC(=O)Nc1ccc(NC(=O)c2cc3sccc3n2Cc2ccc(Cl)cc2)cc1 | 13.0% | -0.3
COc1ccccc1CNC(=O)CCC1N=C2c3ccccc3N=C(SCC(=O)NCCc3ccc(OC)c(OC)c3)N2C1=O (stereo not drawn) | 5.2% | 1.2
CCOc1cc(CNc2ccc(O)cc2)ccc1OCc1ccc(Cl)cc1 | 0.9% | 0.5
O=C(CSc1ncc2c(n1)-c1ccccc1N(Cc1ccc(F)cc1)S2(=O)=O)c1ccc(Cl)cc1 | 1.8% | 0.9
Cc1ccc(NC(=O)c2oc3ccccc3c2NC(=O)Cc2cccs2)cc1 | 5.0% | 0.3
Nc1c(-c2nc(-c3cccs3)no2)nnn1-c1cccc(Cl)c1 | -0.5% | 2.7
COc1ccc(OC)c(NC(=O)CSc2ccc(-c3cccs3)nn2)c1 | -1.4% | 2.2
COc1ccc(NC(=O)CCS(=O)(=O)c2cc3c4c(c2)CCN4C(=O)CC3)cc1OC | 0.2% | 0.0
Cc1ccc(NC(=O)c2ccco2)c(OCc2cc(=O)n3cc(C)sc3n2)c1 | 0.5% | 1.0
Cc1ccc(N(Cc2cccs2)C(=O)C(C)Oc2ccc(Cl)c(C)c2)cc1 (stereo not drawn) | u | 4.3
Cc1cccc(C)c1OC(=O)CSc1nnc(-c2cccs2)o1 | 0.9% | 3.7
Cc1cccc(OC(=O)c2cc(-c3ccc4c(c3)OCCO4)on2)c1 | 0.7% | 0.2
COc1ccc(Cl)cc1NC(=O)CN(C)S(=O)(=O)c1ccc(Br)s1 | 1.7% | 3.8
Cc1ccc2c(c1)c1c(c(=O)n(-c3ccccc3C)c(=O)n1Cc1cccc(F)c1)n2C | 0.0% | 2.3
CC1=C(c2ccc(C(C)C)cc2)S(=O)(=O)NC1=NCc1ccccc1Br | 2.9% | 0.1
COc1cc2c(C(=O)Nc3cc(OC)c(OC)c(OC)c3)cn(C)c(=O)c2cc1OC | 0.5% | 0.9
COc1ccc(-c2cn3nc(N4CCCC(C(=O)Nc5cc(Cl)ccc5OC)C4)sc3n2)cc1 (stereo not drawn) | 2.0% | 0.3
O=c1c(N2CCN(c3cccc(Cl)c3)CC2)csc2ccc(Cl)cc12 | 1.4% | 2.3
CCN1CCN(C(=O)c2ccc3c(c2)N(Cc2cccc(F)c2)C(=O)c2ccccc2S3)CC1 | 1.2% | 2.1

The closing 5 entries of the part above lead into the next.
SMILES | PINK1 modulator | TRPML1 agonist
CC1=C(c2ccc(C(C)C)cc2)S(=O)(=O)NC1=NCc1ccccc1Br | 2.9% | 0.1
COc1cc2c(C(=O)Nc3cc(OC)c(OC)c(OC)c3)cn(C)c(=O)c2cc1OC | 0.5% | 0.9
COc1ccc(-c2cn3nc(N4CCCC(C(=O)Nc5cc(Cl)ccc5OC)C4)sc3n2)cc1 (stereo not drawn) | 2.0% | 0.3
O=c1c(N2CCN(c3cccc(Cl)c3)CC2)csc2ccc(Cl)cc12 | 1.4% | 2.3
CCN1CCN(C(=O)c2ccc3c(c2)N(Cc2cccc(F)c2)C(=O)c2ccccc2S3)CC1 | 1.2% | 2.1
Cc1ccc(C(=O)NCc2ccc(F)cc2)cc1NC(=O)c1nsc2ccccc12 | 3.0% | 0.9
CCOc1ccccc1C1C(C(=O)Nc2ccccc2OC)=C(C)Nc2nc3ccccc3n21 (stereo not drawn) | 1.9% | -1.1
CC1CCN(c2nc3ccc(C(=O)NCc4ccccc4)cc3s2)CC1 | 1.8% | 0.3
c1ccc(-n2ncc3c(NC4CCCC4)ncnc32)cc1 | 4.4% | 0.8
Cn1c(=O)n(Cc2ccccc2Cl)c(=O)c2c1nc1n2CCN1c1ccccc1 | 0.7% | 0.0
COc1cccc(CNC(=O)CCc2c(C)nn(-c3ccc(N4CCCC4)nn3)c2C)c1 | 1.3% | -0.6
Cc1nn(C)c2c1c(C(F)(F)F)cc(=O)n2C(C)C(=O)NCCc1ccccc1 (stereo not drawn) | 5.7% | 0.2
Cc1ccccc1CN1CCC(CNc2ncnc3onc(-c4ccc(Cl)cc4)c23)CC1 | 18.7% | 0.5
COc1ccc(CNC(=O)Cn2c(=O)oc3cc(S(=O)(=O)NCc4ccccc4)ccc32)cc1 | 4.0% | 2.1
CC(C)c1ccc(NC(=O)c2cc3c([nH]c2=O)CC(C)(C)CC3=O)cc1 | 0.5% | -0.7
COc1ccc(N2CCN(CCCNC(=O)Cn3c(-c4cccs4)cc4ccccc43)CC2)cc1 | -0.5% | -0.5
COc1ccc(NC(=O)CCn2nc(-c3ccccc3OC)c3c(C)cc(C)nc32)cc1 | -1.5% | 2.0
CCC(C)NC(=O)CN1C(=O)c2cccnc2Sc2ccccc21 (stereo not drawn) | -0.7% | 0.2
Cc1cc(Oc2nc3ccccn3c(=O)c2/C=C(\C#N)c2nc3ccccc3s2)ccc1Cl | 6.8% | 0.1
CCCCc1ccc(CC(=O)NO)cc1 | -0.1% | -0.7
CCOc1ccc(C(=O)Nc2nnc(SCc3cc(=O)n4ccccc4n3)s2)cc1 | 19.2% | 1.8
Cc1ccc(S(=O)(=O)C2(C(=O)Nc3ccc(C)c(Cl)c3)CC2)cc1 | 1.9% | 5.0
COc1ccc(NC(=O)Cn2cnc3ccc(S(=O)(=O)N4CCC(C)CC4)cc3c2=O)cc1OC | 25.7% | -0.6
CCOC(=O)c1ccc(CN(Cc2ccc(Cl)cc2Cl)S(=O)(=O)c2ccc(F)c(C)c2)cc1 | 1.5% | 4.6
COc1ccc(OC)c(NC(=O)CCCc2nnc3n(C(C)C)c(=O)c4sccc4n23)c1 | 4.2% | 0.4
CCOC(=O)c1cc2c(=O)n3ccccc3nc2n(Cc2ccco2)c1=NC(=O)c1ccc(OCC)cc1 | 6.0% | 5.8
COCCNC(=O)CCCn1c(SCC(=O)Nc2ccc(F)cc2)nc2c(sc3ccccc32)c1=O | -2.0% | 2.2

Given field by field: entries from further up
SMILES: COc1ccc(N2CCN(CCCNC(=O)Cn3c(-c4cccs4)cc4ccccc43)CC2)cc1
  PINK1 modulator: -0.5%; TRPML1 agonist: -0.5
SMILES: COc1ccc(NC(=O)CCn2nc(-c3ccccc3OC)c3c(C)cc(C)nc32)cc1
  PINK1 modulator: -1.5%; TRPML1 agonist: 2.0
SMILES: CCC(C)NC(=O)CN1C(=O)c2cccnc2Sc2ccccc21 (stereo not drawn)
  PINK1 modulator: -0.7%; TRPML1 agonist: 0.2

Assay outcomes from PubChem BioAssay.
